Source: PubChem
VDR inhibitor = vitamin D3 receptor (human) inhibition. P11473. Potency, µM, inactives show max response, negative = inhibition, actives largely listed as inhibitors. VDR-SRC2-3 peptide fluorescence polarization, 2 h. 400,000 compounds, 0.93% hits; active = well fitted inhibition curve with a large enough effect; inconclusive = small, poorly fitted or top-dose-only effect, or another doubt; inactive = no such curve, though single readings can be large or run the other way; note: series mostly up to about 120 µM
Target sequence (P11473 whole entry, looked up): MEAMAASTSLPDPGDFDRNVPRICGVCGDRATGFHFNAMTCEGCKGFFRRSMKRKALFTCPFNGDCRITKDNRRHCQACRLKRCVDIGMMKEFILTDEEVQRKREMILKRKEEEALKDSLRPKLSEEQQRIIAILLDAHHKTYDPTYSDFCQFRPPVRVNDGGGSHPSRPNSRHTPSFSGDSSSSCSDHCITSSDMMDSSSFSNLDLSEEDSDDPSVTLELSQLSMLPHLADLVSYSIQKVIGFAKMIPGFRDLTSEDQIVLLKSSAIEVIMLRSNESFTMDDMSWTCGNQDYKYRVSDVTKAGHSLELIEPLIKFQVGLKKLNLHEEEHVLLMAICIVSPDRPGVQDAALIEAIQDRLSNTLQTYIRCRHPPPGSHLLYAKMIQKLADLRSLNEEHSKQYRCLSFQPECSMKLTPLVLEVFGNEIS
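Measured by FP: displacement of SRC2-3 coactivator peptide from VDR by library compounds, following a two-hour ambient incubation.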
Numbers without * were called inactive; ? = inconclusive; & = joins results of further samples. % is set by controls: 0 for no effect and ±100 for the full control effect; potency is the fitted concentration of half-maximal effect. Some of the compounds tested, so the mix of outcomes need not match the whole.

VDR inhibitor	SMILES
-14%	Cc1ccc(Nc2c(-c3cccnc3)nc3ccc(Cl)cn23)cc1
10%	CC(=O)NCCn1c(SCc2ccccc2F)nc2ccccc2c1=O
-13%	COc1ccc(NC(=O)C2CCCN(S(=O)(=O)c3cccc4cccnc34)C2)cc1 (centres undefined)
7%	O=C(Nc1nnc(CCN2CCCCC2)s1)c1ccc(Br)cc1
-1%	O=C(CCc1ccccc1)Nc1cc2c(cc1C(=O)O)OCCCO2
1%	O=C(NCC(c1ccc2c(c1)OCO2)N1CCOCC1)c1cccc(Cl)c1 (centres undefined)
5%	Cc1ccc(C(=O)OCn2nnc3ccccc3c2=O)cc1[N+](=O)[O-]
-1%	CC12CCCCC1c1ccccc1C(=NCC(=O)O)N2 (centres undefined)
-3%	Cc1nc2ccc(NC(=O)COc3ccccc3[N+](=O)[O-])cc2s1
-4%	CCOc1cc(CNCc2ccncc2)cc(Cl)c1OC
-1%	Cc1[nH]c(=O)[nH]c(=O)c1NC(=O)c1sc2nc3c(C)cccc3cc2c1N
-15%	CC(C)CN(C(=O)CSc1ccc2c(c1)OCCO2)c1c(N)n(CC(C)C)c(=O)[nH]c1=O
2%	Cn1cccc1Cc1nnc(SCC(=O)Nc2ccc3c(c2)OCCO3)n1CCc1ccccc1
6%	N#CCSc1ncccc1-c1nc2ccccc2[nH]1
-7%	COc1ccc(C(=O)N(CC(=O)Nc2sc(C)c(C)c2C(N)=O)C2CCCC2)cc1
-3%	COc1cccc(C(=O)Nc2ccc(-c3cn4cccnc4n3)cc2)c1OC
3%	COCc1cnc(C)nc1N
-26%	COc1ccc(NC(=O)CCn2nnc(-c3ccc(C)cc3)n2)cc1OC
-1%	COc1ccc(NC(=O)CN2c3cccc4cccc(c34)S2(=O)=O)cc1
20%	O=C(COC(=O)c1ccccc1OCc1ccc(Cl)cc1)NCC1CCCO1 (centres undefined)
-18%	Cc1nnc(Sc2nc3c(c(=O)[nH]c(=O)n3C)n2CCc2ccccc2)s1
?	COc1cc(/C=C(\C#N)c2ccccn2)ccc1OCC(=O)Nc1c(Cl)cccc1Cl
-9%	COc1ccc(CC(=O)Nc2ccc(NC(=O)c3ccc(Br)cc3)cc2)cc1OC
-1%	CCC(Cc1ccccc1)NC(=O)C1CC1 (centres undefined)
2%	O=C(CSc1ccc2nnc(CCNC(=O)c3ccccc3)n2n1)NCc1ccc(F)cc1
8%	COc1cc(C(=O)NCCCN(C)C)ccc1OCC(=O)Nc1cccc(C(F)(F)F)c1
11%	Cc1cc(Nc2cccc(C(F)(F)F)c2)nc2ccc(NC(=O)c3cncc(Br)c3)cc12
0%&5%	COc1ccc(NC(=O)CSc2nc3nc(C)cc(C)n3n2)cc1
-16%	COc1ccc(NC(=O)CN(C)C(=O)/C=C/c2cn(-c3ccccc3)nc2-c2ccc(C)cc2)cc1
-16%	O=C(NN/C(=N/S(=O)(=O)c1ccc(Cl)cc1)c1ccccc1)c1cccc(Cl)c1
-4%	c1ccc(OCc2noc(CN3CC[C@@H]4CCCC[C@H]4C3)n2)cc1
-6%	CCC(N=c1cc(-c2ccc(OC)cc2)oc2ccc(C)cc12)C(=O)O (centres undefined)
-15%	Cc1cc(N2CCC(C(=O)N(CC(C)C)CC(C)C)CC2)n2nc(C)c(-c3ccc(Cl)cc3)c2n1
?	CCOc1ccccc1CN1CCNC(=O)C1CC(=O)NC1CCCCCC1 (centres undefined)
18%	CC(Nc1nc(-c2ccccc2)nc2ccccc12)c1ccccc1 (centres undefined)
3%	CCC1CCCCN1C(=O)c1cc(S(=O)(=O)N2CCOCC2)ccc1C (centres undefined)
?	CCN(/C(N)=N/c1nc(C)cc(C)n1)c1ccccc1
-9%	Cc1ccc(NC(=O)Nc2ccc(Cl)cn2)cc1
-2%	CC(C)(C)c1ccc(C(=O)NCCNC(=O)c2ccco2)cc1
2%	CCOc1ccc(-c2nc(SCC(=O)Nc3ccc4c(c3)OCO4)c(-c3ccc(F)cc3)[nH]2)cc1
-11%	O=C(C[C@H]1C/C=C\CC[C@@H](Cc2ccc(F)cc2)C(=O)OCCNC1=O)NCCO
7%	O=C(NCc1ccccc1Cl)C1CCCN(S(=O)(=O)c2cccc3nonc23)C1 (centres undefined)
4%	Cc1cc(=O)[nH]c(SCC(=O)c2ccc(F)c(C)c2)n1
-3%	CC(C)CN(C(=O)CSc1nc2ccccc2c(=O)[nH]1)c1c(N)n(CC(C)C)c(=O)[nH]c1=O
-20%	C=CCn1c(-c2cccc(S(=O)(=O)N(CC)CC)c2)n[nH]c1=S
?	O=C(c1c(F)c(F)c(F)c(F)c1F)N1CCN(c2cccc(C(F)(F)F)c2)CC1
5%	O=C1CC(=O)N(c2ccccc2)N1c1ccccc1
4%	CCOC(=O)C(=CNc1ncccc1C)C(=O)OCC
-10%	O=C(NCc1ccco1)C1CCC(N2C(=O)c3ccccc3C2=O)CC1 (centres undefined)
-1%	O=C(CSc1nnnn1-c1cccc(F)c1)Nc1nc2ccccc2s1
12%	COc1ccc(N2CCN(c3oc(-c4ccccc4OC)nc3C#N)CC2)cc1
-10%	CC(c1ccccc1)n1c(-c2ccc(C(C)(C)C)cc2)n[nH]c1=S (centres undefined)
-1%	ClCC1NCC(c2ccccc2Cl)c2c1[nH]c1ccccc21 (centres undefined)
-18%	COc1ccc2[nH]c(C)c(CCNc3ccc(C(F)(F)F)cc3[N+](=O)[O-])c2c1
10%	Cc1cc(C)c2c(N)c3cccc(C)c3nc2n1
-9%	Cc1nc2c(C(=O)NCCc3ccccc3)c[nH]n2c(=O)c1Cl
-1%	COc1cccc(NC(=O)CSc2nnc(NC(=O)c3ccco3)s2)c1
3%	COc1ccc(S(=O)(=O)NCCN2CCOCC2)cc1[N+](=O)[O-]
1%	CC(=O)NS(=O)(=O)c1ccc(NS(=O)(=O)c2ccc(F)cc2)cc1
2%	Cc1nn(-c2ccc([N+](=O)[O-])cc2)c(N)c1-c1ccccc1

Next structures.
VDR inhibitor	SMILES
-8%	CCCN(CC(=O)Nc1ccccc1C)C(=O)c1ccc2[nH]c3c(c2c1)CC(C)CC3 (centres undefined)
-17%	O=C(NCc1ccccc1Cl)c1ccc(CS(=O)(=O)c2ccccc2)o1
?	CC/C=C\C/C=C\C/C=C\C/C=C\C/C=C\C/C=C\CCC(=O)NC(C)C(=O)O (centres undefined)
-1%	Cc1cccc2nc3c(nc12)CCCC3
2%	N/C(=N/O)C(c1ccccc1)c1ccccc1
-6%	Cc1ccc(CNC(=O)CN(C(=O)C2(C)CC(=O)N=C3C=CC=CN32)c2ccccc2)cc1 (centres undefined)
6%	Cc1nc2nc(NC(=O)c3ccc(C(C)(C)C)cc3)[nH]n2c(=O)c1Cc1ccccc1
-15%	COc1ccc(NC(=O)C(c2ccc(OC)cc2)N(C)C(=O)CNC(C)=O)cc1 (centres undefined)
-4%	CCCc1ccc(C(=O)CCC(=O)O)cc1
-2%	CC1CN(C(=O)c2ccn(C)n2)CC(C)O1 (centres undefined)
6%	CC(C)COc1ccc(C(=O)N2CCN(CCc3ccccn3)CC2)cc1
-12%	Cc1[nH]c(=O)[nH]c(=O)c1S(=O)(=O)Nc1cccc(Cl)c1C
6%	Oc1cccc(/C=N/Nc2cccc3cccnc23)c1
?	CC(=O)n1c2ccccc2c2nc(NC(C)C)sc21
?	CC(=O)Nc1ccc(NC(=O)COC(=O)/C(=C/c2ccccc2)n2nnnc2C)cc1
-6%	O=C(NC1CC1)C1CCN(c2ncnc3c2sc2cccc(F)c23)CC1
-3%	COc1ccc(OC)c(-c2csc(NC(=O)CN3C(=O)C4CCCCC4C3=O)n2)c1 (centres undefined)
-8%	COC(=O)c1cc(NC(=O)CCS(=O)(=O)c2cc(Br)cc3c2N(C(=O)C2CC2)CC3)cc(C(=O)OC)c1
14%	CCCCN1CC(c2nc3ccccc3n2CCCCOc2c(C)cccc2C)CC1=O (centres undefined)
2%	COc1c(Br)cc(C(N)=O)cc1OCc1ccccc1
-16%	Cc1ccc(S(=O)(=O)N2CCCCC2)cc1NC(=O)Cn1cc(C(F)(F)F)ccc1=O
-14%	O=C(NCCc1ccc(Cl)cc1)C1CC(=O)N(C2CCCCC2)C1 (centres undefined)
9%	Cc1cccc(N(CC(=O)N=Nc2c(O)[nH]c3ccccc23)S(C)(=O)=O)c1C
11%	COc1ccc2c(=O)c3c(=O)n(Cc4ccco4)c(C(C)C)nc3oc2c1
-1%	Cc1ccc(-c2[nH]ncc2CNCCc2cnn(-c3ccccc3)c2)cc1C
-16%	COC(=O)COc1ccc(/C=N/NC(=O)c2ccc(N(Cc3ccccc3)S(C)(=O)=O)cc2)cc1
12%	CCOC(=O)c1c(S(=O)(=O)NCC(=O)Nc2ccc(Cl)c(C(F)(F)F)c2)c(C)n(C)c1C
-6%	O=C(N/N=C/c1c[nH]c2ccccc12)C1CC(=O)N(c2ccccc2)C1 (centres undefined)
17%	COc1cc(Cl)c(C)cc1NC(=O)CN1CCCCCC1
11%	Cc1ccc(O)c(-c2cc(C(=O)Nc3cccnc3)[nH]n2)c1
-15%	Cc1sc2ncnc(N3CCN(C(=O)c4ccco4)CC3)c2c1C
-1%	COc1ccc(C(C)=O)cc1COC(=O)Cc1cc(OC)c(OC)c(OC)c1
-7%	CCOc1ccc2c(c1)c(=O)c(C(=O)c1ccc(C)cc1)cn2Cc1ccccc1OC
-1%	O=C(O)CCCCCNS(=O)(=O)c1c(Cl)cccc1Cl
-15%	O=C(Nc1ccccc1C(=O)N1CCCCCC1)c1ccccc1Cl
-13%	Cc1cccc(-n2nnnc2SCn2nnc3ccccc3c2=O)c1

19 compounds already listed, ordered by molecular weight, smallest number first:
VDR inhibitor	SMILES
11%	Cc1ccc(O)c(-c2cc(C(=O)Nc3cccnc3)[nH]n2)c1
17%	COc1cc(Cl)c(C)cc1NC(=O)CN1CCCCCC1
2%	COc1c(Br)cc(C(N)=O)cc1OCc1ccccc1
-1%	O=C(O)CCCCCNS(=O)(=O)c1c(Cl)cccc1Cl
-15%	Cc1sc2ncnc(N3CCN(C(=O)c4ccco4)CC3)c2c1C
-13%	Cc1cccc(-n2nnnc2SCn2nnc3ccccc3c2=O)c1
-15%	O=C(Nc1ccccc1C(=O)N1CCCCCC1)c1ccccc1Cl
11%	COc1ccc2c(=O)c3c(=O)n(Cc4ccco4)c(C(C)C)nc3oc2c1
-6%	O=C(NC1CC1)C1CCN(c2ncnc3c2sc2cccc(F)c23)CC1
-1%	Cc1ccc(-c2[nH]ncc2CNCCc2cnn(-c3ccccc3)c2)cc1C
-1%	COc1ccc(C(C)=O)cc1COC(=O)Cc1cc(OC)c(OC)c(OC)c1
9%	Cc1cccc(N(CC(=O)N=Nc2c(O)[nH]c3ccccc23)S(C)(=O)=O)c1C
?	CC(=O)Nc1ccc(NC(=O)COC(=O)/C(=C/c2ccccc2)n2nnnc2C)cc1
-7%	CCOc1ccc2c(c1)c(=O)c(C(=O)c1ccc(C)cc1)cn2Cc1ccccc1OC
-3%	COc1ccc(OC)c(-c2csc(NC(=O)CN3C(=O)C4CCCCC4C3=O)n2)c1 (centres undefined)
14%	CCCCN1CC(c2nc3ccccc3n2CCCCOc2c(C)cccc2C)CC1=O (centres undefined)
-16%	Cc1ccc(S(=O)(=O)N2CCCCC2)cc1NC(=O)Cn1cc(C(F)(F)F)ccc1=O
12%	CCOC(=O)c1c(S(=O)(=O)NCC(=O)Nc2ccc(Cl)c(C(F)(F)F)c2)c(C)n(C)c1C
-8%	COC(=O)c1cc(NC(=O)CCS(=O)(=O)c2cc(Br)cc3c2N(C(=O)C2CC2)CC3)cc(C(=O)OC)c1

The results go on:
VDR inhibitor	SMILES
9%&0%	CC(=O)N1CCCc2cc(S(=O)(=O)N3CCCC(C(=O)N4CCN(c5ccccc5)CC4)C3)ccc21 (centres undefined)
-12%	CCC/C(C)=N\Nc1nc2c(c(=O)n(C)c(=O)n2C)n1C
-13%	Fc1ccc(-c2ncc3ccccn23)cc1
-5%	Cc1ccccc1NC(=O)c1ccccn1
-21%	CCn1cc(C(=O)OCC(=O)Nc2cccc(Cl)c2C)c(=O)c2ccc(C)nc21
-17%	Cc1cnc(C(=O)Nc2ccc(S(=O)(=O)N(C(C)C)C(C)C)cc2)cn1
8%	CC(C)(C)NC(=O)NC(=O)CN1C(=O)NC(C)(c2ccccc2)C1=O (centres undefined)
18%	Cc1onc(-c2c(F)cccc2Cl)c1C(=O)N(Cc1ccccc1)C(C)C
11%	O=C(c1ccco1)N1CCN(c2ncnc3sc4c(c23)CCC4)CC1
-8%	CCN(C(=O)NCc1noc2ccccc12)c1cc(C)ccc1C
-5%	Cc1ccc(S(=O)(=O)Nc2cccc(C(=O)N3CCN(c4ccccc4O)CC3)c2)cc1F
0%	C=CCn1c(=O)c2ccccc2n2c(SCC(=O)N(C)C)nnc12
-7%	O=C(Nc1ccc2c(c1)OCCO2)c1ccoc1
-5%	CCN(CC)c1ccc2c(C)c(-c3ccc(N)cc3)c(=O)oc2c1
-13%	CCOc1cc(CNCCO)cc(Br)c1OCc1ccc(Cl)cc1
8%	COC(=O)Nc1ccc(S(=O)(=O)N2CCCCC2C(=O)O)cc1 (centres undefined)
-18%	CC1CCCC(C)N1C(=O)CSc1nccc(=O)[nH]1 (centres undefined)
-8%	Cc1ccc(Oc2cc(NC(=O)CCCn3nc([N+](=O)[O-])cc3C)cc([N+](=O)[O-])c2)cc1
-11%	COCCNC(=O)C1CC(c2ccccc2[N+](=O)[O-])=NO1 (centres undefined)
-7%	Cc1nc2sc(C(c3ccco3)N3CCC4(CC3)OCCO4)c(O)n2n1 (centres undefined)
11%	COC(=O)CC1C(=O)NCCN1C(=O)Nc1ccc(Cl)cc1 (centres undefined)
3%	CCc1cccc(C)c1NC(=O)CSc1nnc(CC)n2c1cc1occc12
-3%	Cc1ccc(-n2c(SCc3nc(-c4ccc(Cl)cc4)no3)nnc2-c2ccncc2)cc1
